miR-21 FLuc: miR-21 reporter, rising signal; Potency, µM (top dose mostly 38.3 µM), for inactives: at the top dose reporter change, positive = more light; 340,000 tested, under 10 active; HeLa miR-21 FLuc reporter, luciferase, 48 h; active = well fitted rising curve with a large enough effect; inconclusive = small, poorly fitted or top-dose-only effect; inactive = no such curve, though single readings can be large or run the other way;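 also: % of control where 0% means no effect; miR-21 action dims this reporter so a rising signal means less miR-21 action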
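Compounds were titrated across several concentrations (up to approximately 40 uM) and incubated 48 hours with HeLa miR-21-FLuc reporter cells (miR-21 target sequence downstream of FLuc, endogenous miR-21). Readout was firefly luciferase luminescence after lytic detection reagent.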
Numbers without * were called inactive; ? = inconclusive.

SMILES | miR-21 FLuc
CCSc1nnc2c(n1)OC(c1ccc(OC)c(OC)c1)N(C(C)=O)c1ccccc1-2 (stereo not drawn) | -12%
Cc1cc(C)c2c(=O)cc(C(=O)Nc3ccc(S(=O)(=O)Nc4nc(C)cc(C)n4)cc3)oc2c1 | -13%
Cc1ccc(-c2ccc(CCC(=O)O)n2-c2ccc(C(N)=O)cc2)cc1 | -4%
CCOc1cccc(C2c3c(-c4cc(C)ccc4O)n[nH]c3C(=O)N2Cc2ccco2)c1 (stereo not drawn) | 18%
COc1ccccc1CCNC(=O)CCc1c(C)c2cc3c(C)coc3cc2oc1=O | -15%
Cc1ccc(Cl)cc1NC(=O)CN1C(=O)CSc2ccc(S(=O)(=O)N3CCCC3)cc21 | 0%
Cc1ccc(NC(=O)Cn2c(=O)n(CC(=O)NCCc3ccccc3)c(=O)c3ccccc32)cc1C | -1%
CCOc1ccc(C(=O)Nc2ccc(-c3nc4cc(CC)ccc4o3)cc2)cc1 | -6%
CC(C)c1ccc(OCC(=O)NCC(c2ccc(Cl)cc2)N2CCOCC2)cc1 (stereo not drawn) | 12%
CCC(C(=O)Nc1ccc(C(=O)OC)cc1)n1nc(-c2ccc(C)cc2)c2c(c1=O)CCCC2 (stereo not drawn) | -5%
Cc1ccc(/C=C/c2onc(C)c2S(=O)(=O)N2CCC(C(=O)NCC(C)c3ccccc3)CC2)cc1 (stereo not drawn) | 0%
COc1ccccc1N1CCN(C(=O)Cn2cnc3onc(-c4ccc(F)cc4)c3c2=O)CC1 | -2%
Cc1c(C(=O)Nc2cccc(C#N)c2)sc2nc3n(c(=O)c12)CCCCC3 | -7%
Cc1ccc(CN2CCCn3nc(C(=O)NCCc4ccccc4C)cc3C2=O)cc1 | -17%
CCOc1ccc(CCNC(=O)c2ccc3c(c2)N(Cc2ccc(F)cc2)CCS3)cc1 | 8%
CCCCC(=O)Nc1ccc2nc(SCC(=O)N3CCc4ccccc43)sc2c1 | 16%
c1ccc(Nc2c(-c3ccccc3)nc3ncccn23)cc1 | -5%
O=C(CSc1cn(CC(=O)N2CCCC2)c2ccccc12)Nc1ccc(Cl)cc1 | ?
CCCCN(Cc1ccccc1)S(=O)(=O)c1cc(Br)cc2c1N(C(C)=O)CC2 | 9%
Cc1cccc(C)c1OCC(=O)Nc1c(C(=O)c2ccc(Br)cc2)oc2ccccc12 | -2%
Cc1cc2c(n1-c1ccc(C(=O)NCCc3ccccc3)cc1)CCC(C)C2 (stereo not drawn) | -19%
CCOc1ccccc1CNC(=O)CCC(=O)N1CCSc2ccccc21 | -2%
Cc1ccccc1NC(=O)Cn1c(=O)n(Cc2ccco2)c(=O)c2cccnc21 | -8%
COc1ccc(NC(=O)CC2C(=O)N(c3ccc(F)cc3)C(=O)N2CCc2sccc2C)cc1 (stereo not drawn) | 15%
O=C(CSc1n[nH]c(-c2ccccc2Cl)n1)N1CCN(c2ccc(F)cc2)CC1 | 4%

Quoted at random: four compounds from above, in no set order.
SMILES | miR-21 FLuc
Cc1ccccc1NC(=O)Cn1c(=O)n(Cc2ccco2)c(=O)c2cccnc21 | -8%
Cc1ccc(Cl)cc1NC(=O)CN1C(=O)CSc2ccc(S(=O)(=O)N3CCCC3)cc21 | 0%
CCCCN(Cc1ccccc1)S(=O)(=O)c1cc(Br)cc2c1N(C(C)=O)CC2 | 9%
Cc1cc2c(n1-c1ccc(C(=O)NCCc3ccccc3)cc1)CCC(C)C2 (stereo not drawn) | -19%

Next part.
SMILES | miR-21 FLuc
CCN(CC)CCOC(=O)c1ccc(NC(=O)c2cc3c(=O)n(CC)c4ccccc4c3s2)cc1 | 10%
CCCN(CCC)c1nc(-c2ccccc2F)nc2ccccc12 | 14%
CCn1nc(C)c(CCN(C)C(=O)Nc2cc(OC)c(OC)c(OC)c2)c1C | 0%
Cc1nn(S(=O)(=O)c2ccc(Br)cc2)c(C)c1S(=O)(=O)N1CCCCCC1 | -6%
COc1ccccc1C(=O)Oc1ccc(C(c2c(C)[nH][nH]c2=O)c2c(C)[nH][nH]c2=O)cc1 | -9%
Cc1ccc(C)c(CN2C(=O)c3ccccc3S(=O)(=O)c3ccc(C(=O)NCc4ccccc4)cc32)c1 | -1%
CC(C)OCCCN(Cc1ccco1)C(=O)c1cc2c(s1)-c1ccccc1OC2 | 5%
O=C(CSc1ncc2c(n1)-c1ccccc1N(Cc1ccc(F)cc1)S2(=O)=O)NCCc1ccccc1 | 5%
CCOC(=O)c1ccc(NC(=O)CSc2nc3ccccc3c(=O)n2CCNC(C)=O)cc1 | -1%
CCN(CC)CCCNC(=O)c1ccc2nc(CCc3ccccc3)oc2c1 | -23%
COc1ccc(S(=O)(=O)NCCc2cn3ccsc3n2)cc1OC | -7%
COc1ccc(-c2nc(CNC(=O)Nc3ccccc3)c(C)o2)cc1 | -1%
CCOC(=O)c1c(N)n(-c2ccccc2CC)c2nc3ccccc3nc12 | 16%
CC1=C(C(=O)Nc2cccnc2)C(c2ccccc2)n2nc(SCc3ccccc3Cl)nc2N1 (stereo not drawn) | 3%
COc1ccc(N2C(=O)C(CC(=O)Nc3ccc(F)cc3)N(Cc3ccc4c(c3)OCO4)C2=O)cc1 (stereo not drawn) | 1%
CC(=O)c1cccc(Nc2nc(-c3ccccc3Cl)nc3ccccc23)c1 | 22%
COc1ccc(N2CCN(C(=O)c3c(C)oc4nc(C)nc(N5CCCC5)c34)CC2)cc1 | -4%
CCn1c(=O)c2cc(C(=O)N(CCCOC(C)C)Cc3ccco3)sc2c2ccccc21 | 15%
CCc1ccccc1NC(=O)c1ccc2c(O)c(S(=O)(=O)c3ccccc3)c(=O)[nH]c2c1 | -3%
COc1ccccc1CCNS(=O)(=O)c1ccc(N2CCCCS2(=O)=O)cc1 | 2%
CN(C)CCNc1oc(-c2ccc(COc3ccc(Cl)cc3)o2)nc1C#N | -34%
O=C1CC(c2ccccc2)Sc2ccccc2N1Cc1ccccc1F (stereo not drawn) | 5%
COc1ccc(Cn2ccc3nc(C)c(C(=O)N4CCN(c5ccccc5F)CC4)cc3c2=O)cc1 | 7%
COc1ccc(-c2cn3c(n2)sc2cc(C(=O)Nc4ccc(F)cc4)ccc23)cc1 | -5%
Cc1ccc(NC(=O)C2CCCN(c3ncnc4onc(C)c34)C2)cc1Cl (stereo not drawn) | 0%

Another view of part of the listing above:
SMILES	miR-21 FLuc
CCc1ccccc1NC(=O)c1ccc2c(O)c(S(=O)(=O)c3ccccc3)c(=O)[nH]c2c1	-3%
COc1ccccc1CCNS(=O)(=O)c1ccc(N2CCCCS2(=O)=O)cc1	2%
CN(C)CCNc1oc(-c2ccc(COc3ccc(Cl)cc3)o2)nc1C#N	-34%
O=C1CC(c2ccccc2)Sc2ccccc2N1Cc1ccccc1F (stereo not drawn)	5%
COc1ccc(Cn2ccc3nc(C)c(C(=O)N4CCN(c5ccccc5F)CC4)cc3c2=O)cc1	7%
COc1ccc(-c2cn3c(n2)sc2cc(C(=O)Nc4ccc(F)cc4)ccc23)cc1	-5%
Cc1ccc(NC(=O)C2CCCN(c3ncnc4onc(C)c34)C2)cc1Cl (stereo not drawn)	0%

(continued)
SMILES | miR-21 FLuc
COc1ccc(CNC(=O)c2ccc3c(c2)N(C)C(=O)C2CCCCN32)cc1OC (stereo not drawn) | 5%
CCN(CC)CCNC(=O)c1ccc2c(c1)N(Cc1ccccc1)C(=O)c1ccccc1S2=O (stereo not drawn) | -1%
CCOC(=O)C1CCC(CN(Cc2cccc(Br)c2)S(=O)(=O)c2ccc(Cl)cc2)CC1 (stereo not drawn) | 7%
CC(C)N(C(=O)c1cc2c(Cl)nc3ccccc3c2s1)C1CCCCC1 | -1%
Cc1nn(C(C)C(=O)NC2CCC(C)CC2)c(=O)c2c1sc1ccccc12 (stereo not drawn) | 26%
Cc1ccn2cc(CNC(=O)c3cccc(C(F)(F)F)c3)nc2c1 | -6%
Cn1ncc2c(NCc3ccc(Cl)cc3)ncnc21 | -5%
COc1cc(NS(=O)(=O)c2ccc3c(c2)CCN3S(C)(=O)=O)cc(OC)c1 | -3%
COc1ccc(CN2C(=O)c3oc4ccc(F)cc4c(=O)c3C2c2ccc(O)cc2)cc1 (stereo not drawn) | -13%
CCOc1ccc(CCNC(=O)Cn2c(C)c3cnn(-c4ccccc4)c(=O)c3c2C)cc1 | -2%
CCOc1ccc(NC(=O)CN2CCN(c3ccc(Cl)cc3)CC2)cc1 | 6%
Cc1ccc(C)c(-n2nnc(-c3nc(-c4ccccc4C)no3)c2C)c1 | -55%
CCc1ccc(NC(=O)CSc2nc3n[nH]c(C)c3c(=N)n2-c2ccc(C)cc2)cc1 | 11%
Cc1cc(Cl)ccc1NC(=O)Cn1nnc2sc(-c3ccccc3)cc2c1=O | -3%
COc1ccccc1NC(=O)CSC1=Nc2ccccc2C2=NC(Cc3ccccc3)C(=O)N12 (stereo not drawn) | 12%
CC(C)Oc1ccc(CNC(=O)CCCn2c(=O)c3cccn3c3ccccc32)cc1 | 3%
CCCCCOc1ccc(/C=C/C(=O)Nc2sc3c(c2C(=O)OCC)CCC3)cc1OC | -1%
COc1ccc(Cl)cc1NC(=O)c1c(NCc2cccnc2)sc2c1CCC(C)C2 (stereo not drawn) | 18%
CC(=O)Nc1cccc(NC(=O)C2(c3cccs3)CCOCC2)c1 | -3%
COC(=O)CSc1nc2sc3c(c2c(=O)n1-c1ccc(C)cc1)CC(C(C)C)OC3 (stereo not drawn) | -5%
Cc1ccc(N(CC(=O)N2CCN(c3cc(Cl)ccc3C)CC2)S(=O)(=O)c2c(C)noc2C)cc1 | 21%
COc1ccc(-c2noc(CCC(=O)Nc3cccc(C)c3C)n2)cc1OC | -1%
Cc1ccc(NC(=O)CCSc2nc(-c3ccco3)cc(C(F)(F)F)n2)cc1F | -5%
COc1ccc(-c2cn3nc(N4CCCC(C(=O)Nc5ccc(Cl)cc5C)C4)sc3n2)cc1 (stereo not drawn) | -10%
Cc1ccc(NC(=O)[C@H](Cc2ccccc2)N2Cc3ccccc3C2=O)cc1 | 0%

(listing goes on)
SMILES | miR-21 FLuc
O=C(Nc1cc2c(cc1C(=O)c1cccc(Br)c1)OCCO2)c1ccccc1F | -2%
COc1ccc(N(CC(=O)Nc2ccc(Cl)cc2C)S(=O)(=O)c2ccccc2)c(OC)c1 | 22%
O=c1c2cnn(-c3ccc(Cl)cc3)c2ncn1Cc1cccc(C(F)(F)F)c1 | 2%
O=C(NC1(C(F)(F)F)NC(=O)N(CCc2ccccc2)C1=O)c1ccccc1F (stereo not drawn) | -4%
Cc1c(-c2nc(-c3ccccc3)no2)nnn1-c1cccc(C(F)(F)F)c1 | -34%
COC(=O)c1cc2sc(C)cc2n1CC(=O)Nc1ccc(C)c(C)c1 | 5%
CCCC(=O)Nc1cc2nn(-c3ccccc3)nc2cc1C | -78%
O=C(NCCc1ccccc1)c1ccc2nc(N3CCCCC3)sc2c1 | -50%
Cc1ccccc1CCNC(=O)c1ccc(Cn2c(=O)c3cccn3c3cccnc32)cc1 | -4%
Cc1ccc(Cl)cc1NC(=O)Cn1c(SCC(=O)NCc2ccccc2)nc2ccccc21 | 3%
COc1ccc(CC(=O)NCCc2sc(-c3cccc(F)c3)nc2C)cc1 | -3%
Cc1ccc(C(=O)Nc2ccc(NC(=O)c3cccs3)cc2)cc1C | -6%
COCCCNC(=O)CSC1=Nc2ccccc2C2=NC(CCC(=O)NCc3ccc(OC)cc3)C(=O)N12 (stereo not drawn) | 2%
O=C(CSc1nc2c([nH]c3ccccc32)c(=O)n1-c1ccccc1)N1CCc2ccccc21 | 3%
COc1cccc(C2=CC(c3ccccc3F)n3ncc(C(=O)Nc4ccc(F)cc4)c3N2)c1 (stereo not drawn) | 12%
Cc1ccc(N2CC(NC(=O)c3cccc(Cl)c3)CC2=O)cc1C (stereo not drawn) | 3%
COc1ccccc1CNC(=O)c1cc2cccc3c2n1CC(C)S3 (stereo not drawn) | -1%
Cc1ccc(C)c(N2CCN(C(=O)CN3C(=O)COc4ccc(S(=O)(=O)N5CCCCCC5)cc43)CC2)c1 | 1%
COc1ccc(NC(=O)Cn2nnc(C(=O)NCc3ccccc3Cl)c2N)cc1Cl | -5%
CCc1ccc(-n2c(=O)c3cccnc3n2CC(=O)Nc2cc(F)ccc2F)cc1 | 11%
CCOC(=O)c1ccc(CN(Cc2ccccc2C)S(=O)(=O)c2ccc(F)c(C)c2)cc1 | 1%
COc1ccc(CNC(=O)CCc2c(C)nc3nc(CNC(=O)OC(C)(C)C)nn3c2C)cc1 | 2%
CCCCN(CC)C(=O)Cn1c(=O)n(-c2ccc(OCC)cc2)c(=O)c2c3c(sc21)CCCC3 | -4%
CCOc1ccc(CNC(=O)c2ccc(CS(=O)c3ccccc3)o2)cc1 (stereo not drawn) | 0%
Cc1ccc2c(c1)C(=O)OC(C(=O)Nc1ncc(Cc3ccc(Cl)cc3)s1)C2 (stereo not drawn) | -2%

Other results
SMILES | miR-21 FLuc
COc1ccc(C(=O)N(Cc2sccc2C)C2CCS(=O)(=O)C2)cc1Cl (stereo not drawn) | -9%
CC(C)c1ccc(NS(=O)(=O)c2cc(Br)cc3c2N(C(=O)C2CC2)CC3)cc1 | 18%
COc1ccc(OC(C)C(=O)NCc2nc(-c3cccc(C)c3)no2)cc1 (stereo not drawn) | 1%
COc1ccc(Cl)cc1C(=O)Nc1ccc2nc(Nc3cccc(Cl)c3)cc(C)c2c1 | 10%
Cc1ccc(NC(=O)CCc2c(C)nc3cc(-c4ccccc4)nn3c2C)cc1F | 29%
Cc1nn(CCCC(=O)NCc2ccccc2Br)c(=O)c2c1sc1ccccc12 | -19%
Cc1cccc(N2CCN(C(=O)c3cc4c(=O)oc5ccccc5c4s3)CC2C)c1 (stereo not drawn) | -6%

The list is partial (hit frequency here may not be typical).
